ALR H2O2 inh – human ALR oxidase inhibition via reduced H2O2 | inhibition, % (test concentration not listed) | hit rate 3.8% among 290,000 | P55789 | AID 485317 | purified ALR, DTT oxidation, H2O2 HRP-luminol luminescence;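 active = mean and each replicate at 75% or more; inconclusive = only one of the two met; inactive = neither met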;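 note: stock transfer was 7.5 nL into about 7.5 µL; 0% = neutral wells and 100% = wells with inactivated enzyme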
Target sequence (P55789 whole entry, looked up): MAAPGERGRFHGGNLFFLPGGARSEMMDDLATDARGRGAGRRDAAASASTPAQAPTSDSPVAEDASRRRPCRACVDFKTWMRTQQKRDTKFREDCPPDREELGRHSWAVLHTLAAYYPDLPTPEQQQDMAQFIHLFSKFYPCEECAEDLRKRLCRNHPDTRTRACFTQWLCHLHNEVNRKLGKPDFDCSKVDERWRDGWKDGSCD
FGF22 binding – shifts melting point of recombinant human FGF22; calls only at 9.99 µM; recombinant FGF22 thermal shift, SYPRO orange fluorescence; percent of sucrose octasulfate shift, DMSO zero; hit rate 1.5% among 340,000; Q9HCT0;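 active = melting point raised past a set limit in the mean and every replicate; inconclusive = no clear call; three in four hits are not shown here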
Target sequence (Q9HCT0 whole entry, looked up): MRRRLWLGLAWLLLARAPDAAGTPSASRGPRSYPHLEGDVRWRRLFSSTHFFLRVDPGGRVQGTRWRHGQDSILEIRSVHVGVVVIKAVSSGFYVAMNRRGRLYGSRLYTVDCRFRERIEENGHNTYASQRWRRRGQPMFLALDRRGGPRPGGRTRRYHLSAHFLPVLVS
RanGTP-Impb inh – disruptors of Ran-importin-beta complex formation – biochemical, FRET, CFP-Ran, YFP-importin-beta, homogeneous, primary screen. cell-free CFP-Ran/YFP-importin-beta FRET ratio. hit rate 1.1% among 300,000. AID 2216. inhibition, % (no concentration beside the values);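 active = most replicates above 15%; inconclusive = exactly half above 15%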;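 note: 0% = DMSO wells and 100% = Ran loaded with GDP instead of GTP; wells of about 40 µL received 100 nL stock; the first replicate is given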
Ecoli rRNA inh – inhibitors of bacterial rRNA selective over humanized ribosomes | E. coli WT GFP vs humanized-ribosome RFP mutants, fluorescence, 24 h; active compounds read low; DMSO median 0, no signal -100 | GFP signal change (wild-type ribosome), % (no concentration beside the values) | hit rate 1.6% among 350,000 | AID 720706;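 active = significant combined selectivity score with lowered wild-type GFP, culture density cut under 30%, mutant RFP and density less affected; inactive = any of these conditions unmet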; note: one replicate is shown; some compounds called inactive have numbers as strong as hits
MLL AF4-AF9 inh – inhibitors of human MLL-AF4/AF9 interaction | P42568 | AlphaScreen, biotin-AF4 peptide binding to FLAG-AF9 | inhibition, % at 10 µM | hit rate 0.47% among 350,000;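 active = every replicate reaching a set inhibition limit, whatever the replicate mean, cut at about 25% in these data; inconclusive = mean inhibition reaches that limit but some replicates miss it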;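 note: 0% = plate neutral control median and 100% = total signal loss; the record names both 10 and 1 µM as test concentration; the first replicate is given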
Target sequence (P42568 whole entry, looked up): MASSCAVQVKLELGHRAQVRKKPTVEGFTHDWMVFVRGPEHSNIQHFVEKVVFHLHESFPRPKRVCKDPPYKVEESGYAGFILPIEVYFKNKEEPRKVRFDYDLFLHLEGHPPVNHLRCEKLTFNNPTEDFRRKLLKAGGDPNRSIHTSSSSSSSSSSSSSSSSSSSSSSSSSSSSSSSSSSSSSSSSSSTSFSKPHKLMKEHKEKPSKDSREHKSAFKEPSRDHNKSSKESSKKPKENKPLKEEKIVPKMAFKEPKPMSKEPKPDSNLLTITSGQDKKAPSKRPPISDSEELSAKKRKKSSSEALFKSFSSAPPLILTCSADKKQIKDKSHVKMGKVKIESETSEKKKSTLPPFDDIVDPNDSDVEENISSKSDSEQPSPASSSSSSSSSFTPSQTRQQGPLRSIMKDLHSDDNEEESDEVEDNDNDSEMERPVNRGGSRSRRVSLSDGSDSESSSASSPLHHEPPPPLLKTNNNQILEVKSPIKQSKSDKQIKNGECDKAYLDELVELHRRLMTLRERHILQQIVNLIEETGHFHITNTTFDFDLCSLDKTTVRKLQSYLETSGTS
T cruzi inh – T. cruzi replication inhibition | T. cruzi beta-gal in NIH3T3, luminescence, 90 h | inhibition, % (test concentration not listed) | hit rate 1.4% among 300,000;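 active = mean inhibition across valid replicates above about 55%, limit read from the data; inconclusive = mean below that limit but half or more replicates reach it; inactive = mean below it, under half of replicates reach it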;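 note: signal also drops with host cell toxicity which is not excluded here; 0% = plate median of DMSO wells and 100% = zero luminescence signal; higher percent means less beta-gal luminescence so fewer parasites; stock transfer was 50 nL into about 50 µL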
Beta cell apopt – blocks beta cell apoptosis; INS-1E cytokine-induced death, ATP luminescence, 48 h; percent of positive-control rescue, neutral wells zero; protection from apoptosis, % (test concentration not listed); hit rate 0.8% among 300,000; AID 435005;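 active = all replicates at 75% or more, or half of them and the mean; inconclusive = half reach 75% but not the mean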;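 note: 0% = cytokine-treated negative control wells and 100% = positive control rescue; higher means more ATP so stronger rescue from cytokine killing; wells of about 40 µL received 100 nL stock; the first replicate is given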
Calb FLC – C. albicans growth modulation with fluconazole. growth inhibition, % (concentration not given with the values). C. albicans CaCi-2 (fluconazole-resistant clinical isolate) + fluconazole, Alamar Blue growth, 48 h. hit rate 0.57% among 300,000. AID 1979;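 active = most replicates above 75%; inconclusive = exactly half above 75%; inactive = most below 75%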;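 note: all wells also contain fluconazole at 8 µg/ml as a sub-toxic cotreatment; 0% = median of DMSO wells and 100% = median of geldanamycin control wells; wells of about 8 µL received 7.5 nL stock; the first replicate is given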
Ecoli rRNA inh OD600 – second read-out of Ecoli rRNA inh, no call of its own (marks repeat the call); OD600 change, %; measured here: OD600 growth;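 optical density of the mix in the first replicate; 0 = DMSO median and -100 = no signal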
Ecoli rRNA inh RFP – further read-out of Ecoli rRNA inh, marked with its call; RFP signal change, %; measured here: RFP humanized mutant strains;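 first replicate; 0 = DMSO median and -100 = no signal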
Numbers without * were called inactive.

For COc1ccc(NC(=O)COC(=O)/C=C/c2cccs2)c(OC)c1 the results were ALR H2O2 inh -5, FGF22 binding inactive, Ecoli rRNA inh 10, MLL AF4-AF9 inh 0.4, Beta cell apopt 0, Ecoli rRNA inh OD600 0 and Ecoli rRNA inh RFP -0.7.
For COc1cccc(NC(=O)CN2CCC(C)CC2)c1 the results were ALR H2O2 inh -5, RanGTP-Impb inh -0.4, T cruzi inh -15 and Calb FLC -11.
For COCCSc1ccccc1C(=O)N1CCN(c2ccccc2OC)CC1 the results were ALR H2O2 inh 57, FGF22 binding inactive, RanGTP-Impb inh 4.4, Ecoli rRNA inh 1, MLL AF4-AF9 inh -2.5, T cruzi inh -5, Beta cell apopt -9, Calb FLC -2, Ecoli rRNA inh OD600 6 and Ecoli rRNA inh RFP 3.3.
Cc1ccc(NC(=O)CSCC(=O)Nc2sccc2C#N)cc1 was read as ALR H2O2 inh 99*, FGF22 binding inactive, RanGTP-Impb inh -2.1, Ecoli rRNA inh -11, MLL AF4-AF9 inh -21, T cruzi inh -2, Beta cell apopt 5, Calb FLC 7, Ecoli rRNA inh OD600 -6 and Ecoli rRNA inh RFP 3.9.
COc1cc(C(=O)Nc2ccc(C(=O)c3cccs3)cc2)cc(OC)c1OC was read as ALR H2O2 inh -4, FGF22 binding inactive, RanGTP-Impb inh 0.7, Ecoli rRNA inh -22, MLL AF4-AF9 inh 4.0, T cruzi inh -4, Beta cell apopt 8, Calb FLC 13, Ecoli rRNA inh OD600 -20 and Ecoli rRNA inh RFP -2.4.
CCCOC(=O)C1[C@H]2C(=O)N(Cc3ccco3)C[C@]23C=C[C@H]1O3 (stereo partly drawn) was read as ALR H2O2 inh -7, RanGTP-Impb inh 3.7, T cruzi inh 7, Beta cell apopt -9 and Calb FLC -18.
For Cc1c(C)n(C(=O)CN2CCC(C)CC2)c2ccccc12 the results were ALR H2O2 inh -1, RanGTP-Impb inh 0.6, T cruzi inh 2, Beta cell apopt -4 and Calb FLC 3.
`Cc1ccc(C(=O)NN2C(=O)c3ccc(S(=O)(=O)c4ccc(C(=O)O)cc4)cc3C2=O)cc1` gave ALR H2O2 inh 5, FGF22 binding inactive, RanGTP-Impb inh 4.5, Ecoli rRNA inh 11, MLL AF4-AF9 inh -0.9, T cruzi inh -7, Beta cell apopt 5, Calb FLC -5, Ecoli rRNA inh OD600 12 and Ecoli rRNA inh RFP 1.3.
Screening Cc1cc(OCCn2ccnc2)cc(C)c1Cl returned ALR H2O2 inh 0, FGF22 binding inactive, RanGTP-Impb inh -1.9, Ecoli rRNA inh -44, MLL AF4-AF9 inh 5.2, T cruzi inh 51, Beta cell apopt -7, Calb FLC -13, Ecoli rRNA inh OD600 -74 and Ecoli rRNA inh RFP -17.
`COc1cc(OC)cc(-c2c(-c3cccs3)c3cc(-c4ccc5c(c4)OCCO5)ccc3n2C)c1` gave ALR H2O2 inh -4, FGF22 binding inactive, Ecoli rRNA inh 5, MLL AF4-AF9 inh -5.2, Beta cell apopt 4, Ecoli rRNA inh OD600 12 and Ecoli rRNA inh RFP -0.5.
For O=Cc1c(N2CCN(CCO)CC2)nc2ccccn2c1=O the results were FGF22 binding inactive, RanGTP-Impb inh 79*, Ecoli rRNA inh 6, MLL AF4-AF9 inh -2.1, T cruzi inh -3, Calb FLC -1, Ecoli rRNA inh OD600 1 and Ecoli rRNA inh RFP 6.0.
Screening Cc1nnsc1C(=O)NNc1ccc(C(C)(C)C)cc1 returned ALR H2O2 inh 2, FGF22 binding inactive, RanGTP-Impb inh 1.8, MLL AF4-AF9 inh 1.3, T cruzi inh 3, Beta cell apopt 10 and Calb FLC 2.
Cc1cc(C)c(C#N)c(SCC(=O)C(C)(C)C)n1 was read as ALR H2O2 inh -2, RanGTP-Impb inh -3.8, T cruzi inh 72* and Calb FLC 18.
For COc1cccc(NC2=CC(=O)CC(C)(C)C2)c1 the results were FGF22 binding inactive, RanGTP-Impb inh 9.8, Ecoli rRNA inh 6, MLL AF4-AF9 inh 0.6, T cruzi inh 7, Beta cell apopt -10, Calb FLC 30, Ecoli rRNA inh OD600 9 and Ecoli rRNA inh RFP 1.8.
Cc1nc2cc(NC(=O)Nc3cccc([N+](=O)[O-])c3)ccc2n1C was read as ALR H2O2 inh -18, FGF22 binding inactive, RanGTP-Impb inh 0.8, Ecoli rRNA inh 3, MLL AF4-AF9 inh -0.7, T cruzi inh -7, Beta cell apopt 3, Calb FLC -6, Ecoli rRNA inh OD600 3 and Ecoli rRNA inh RFP -6.0.
For CC1(C(=O)NCCCNc2ncc(C(F)(F)F)cc2Cl)C=CCN1C(=O)c1ccccc1 (stereo not drawn) the results were ALR H2O2 inh 5, FGF22 binding inactive, RanGTP-Impb inh 5.4, Ecoli rRNA inh -14, MLL AF4-AF9 inh -0.8, T cruzi inh -16, Calb FLC -21, Ecoli rRNA inh OD600 -6 and Ecoli rRNA inh RFP -6.2.
`CC1(c2cccc(Br)c2)NC(=O)N(CC(=O)N2CCN(C(=O)c3ccco3)CC2)C1=O` (stereo not drawn) gave ALR H2O2 inh -1, FGF22 binding inactive, MLL AF4-AF9 inh -0.8 and Beta cell apopt -1.
For CC1CCCCC12NC(=O)N(CC(=O)N1CCN(C(=O)c3ccco3)CC1)C2=O (stereo not drawn) the results were ALR H2O2 inh 22, FGF22 binding inactive, Ecoli rRNA inh 11, MLL AF4-AF9 inh -0.5, Beta cell apopt 1, Ecoli rRNA inh OD600 12 and Ecoli rRNA inh RFP -2.0.
CCN(CC)S(=O)(=O)c1ccc(N(C)Cc2cccnc2)nc1 was read as ALR H2O2 inh -13, RanGTP-Impb inh 4.9, T cruzi inh 15, Beta cell apopt 2 and Calb FLC -22.
`COc1ccc(CN2CCN(C(=O)c3ccc4c(c3)CCC4)CC2)cc1OC` gave ALR H2O2 inh -12, FGF22 binding inactive, Ecoli rRNA inh 1, MLL AF4-AF9 inh 0.1, Beta cell apopt -4, Ecoli rRNA inh OD600 -1 and Ecoli rRNA inh RFP 5.3.

Of the compounds above, these contain a tert-butyl group.
Screening Cc1nnsc1C(=O)NNc1ccc(C(C)(C)C)cc1 returned ALR H2O2 inh 2, FGF22 binding inactive, RanGTP-Impb inh 1.8, MLL AF4-AF9 inh 1.3, T cruzi inh 3, Beta cell apopt 10 and Calb FLC 2.
Cc1cc(C)c(C#N)c(SCC(=O)C(C)(C)C)n1 was read as ALR H2O2 inh -2, RanGTP-Impb inh -3.8, T cruzi inh 72* and Calb FLC 18.

(next part)
For COc1ccc(NC(=O)CN(C)S(=O)(=O)c2ccc(C)cc2)c([N+](=O)[O-])c1 the results were ALR H2O2 inh -2, FGF22 binding inactive, RanGTP-Impb inh -19, Ecoli rRNA inh 10, MLL AF4-AF9 inh 2.4, T cruzi inh 1, Beta cell apopt -5, Calb FLC 3, Ecoli rRNA inh OD600 18 and Ecoli rRNA inh RFP 0.6.
Screening Cc1ccc(Nc2ncccc2C(=O)NCc2cccs2)c(C)c1 returned ALR H2O2 inh -1, RanGTP-Impb inh -1.6, T cruzi inh 8, Beta cell apopt -9 and Calb FLC inconclusive.
COc1ccccc1CN1CCN(Cc2nc(Cc3ccccc3)no2)CC1 was read as ALR H2O2 inh -2, FGF22 binding inactive, RanGTP-Impb inh -3.7, Ecoli rRNA inh 6, MLL AF4-AF9 inh -2.5, T cruzi inh 63*, Beta cell apopt -4, Calb FLC -15, Ecoli rRNA inh OD600 4 and Ecoli rRNA inh RFP -0.3.
COC(=O)Nc1nnc(/C=C/c2ccc(OC)cc2)s1 was read as FGF22 binding inactive, RanGTP-Impb inh 0.5, Ecoli rRNA inh -8, MLL AF4-AF9 inh -1.3, T cruzi inh -13, Beta cell apopt 8, Calb FLC 8, Ecoli rRNA inh OD600 10 and Ecoli rRNA inh RFP -1.4.
`COc1ccc2oc(C(=O)OCC(=O)NC3CC3)c(C)c2c1` gave ALR H2O2 inh -2, FGF22 binding inactive, RanGTP-Impb inh 2.5, Ecoli rRNA inh 8, MLL AF4-AF9 inh -1.4, T cruzi inh -12, Beta cell apopt -8, Calb FLC -2, Ecoli rRNA inh OD600 9 and Ecoli rRNA inh RFP -0.9.
C1CCC(n2nnnc2CN2CCCC2)CC1 was read as ALR H2O2 inh -4, RanGTP-Impb inh -2.2, T cruzi inh 8, Beta cell apopt -4 and Calb FLC -1.
`C=CCNCC(=O)Nc1sc2c(c1C(=O)Nc1ccc(OC)cc1OC)CCC2` gave ALR H2O2 inh -5, FGF22 binding inactive, RanGTP-Impb inh -0.3, Ecoli rRNA inh 0, MLL AF4-AF9 inh -1.2, T cruzi inh 31, Beta cell apopt 0, Calb FLC 1, Ecoli rRNA inh OD600 -3 and Ecoli rRNA inh RFP 8.3.
Screening Cc1nnc(SCc2ccccc2)nc1-c1ccccc1 returned ALR H2O2 inh 13, RanGTP-Impb inh 6.8, T cruzi inh 26, Beta cell apopt -6 and Calb FLC -10.
For O=C(COC(=O)c1ccc(F)cc1)NC1CC1 the results were ALR H2O2 inh -14, FGF22 binding inactive, Ecoli rRNA inh 8, MLL AF4-AF9 inh -18, Beta cell apopt -3, Ecoli rRNA inh OD600 9 and Ecoli rRNA inh RFP -0.4.
Screening O=C(COC(=O)CNS(=O)(=O)c1ccc(F)c(F)c1F)NC1CCCC1 returned ALR H2O2 inh -4, FGF22 binding inactive, RanGTP-Impb inh -1.1, Ecoli rRNA inh 13, MLL AF4-AF9 inh 0.0, T cruzi inh -5, Beta cell apopt -2, Calb FLC -4, Ecoli rRNA inh OD600 16 and Ecoli rRNA inh RFP 2.4.
For O=C(Cn1cnc2ccccc2c1=O)c1c[nH]c2ccccc12 the results were ALR H2O2 inh 0, RanGTP-Impb inh 2.8, Ecoli rRNA inh -1, T cruzi inh 8, Beta cell apopt -2, Calb FLC -3, Ecoli rRNA inh OD600 7 and Ecoli rRNA inh RFP -5.8.
Cc1ccc(Cn2c(=O)n(CCC(=O)NCc3ccc4c(c3)OCO4)c(=O)c3ccccc32)cc1 was read as ALR H2O2 inh -7, RanGTP-Impb inh -0.2, T cruzi inh 9, Beta cell apopt 3 and Calb FLC 1.
Screening Fc1ccc(CSc2nnc(-c3cccnc3)o2)cc1 returned FGF22 binding inactive, RanGTP-Impb inh -1.8, Ecoli rRNA inh -15, MLL AF4-AF9 inh -0.1, T cruzi inh -5, Beta cell apopt -7, Calb FLC 2, Ecoli rRNA inh OD600 -12 and Ecoli rRNA inh RFP -4.2.
Screening CC(C)(O)[C@H]1Cc2cc3ccc(=O)oc3cc2O1 returned ALR H2O2 inh 1, FGF22 binding inactive, RanGTP-Impb inh 3.2, Ecoli rRNA inh -1, MLL AF4-AF9 inh 0.3, T cruzi inh -7, Beta cell apopt 3, Calb FLC 18, Ecoli rRNA inh OD600 8 and Ecoli rRNA inh RFP 1.6.
COc1ccc(NC(=O)C2CCCO2)cc1Cl (stereo not drawn) was read as ALR H2O2 inh -69, RanGTP-Impb inh -3.9, T cruzi inh -18, Beta cell apopt 0 and Calb FLC inconclusive.

Screening results as filed in PubChem BioAssay.

The list is partial; the hit share may differ from the screen's.
